H5N1 CPE – MDCK cell protection from H5N1 avian flu | cytopathic effect, luminescence, 72 h; stronger effect = higher value; no value below 0 was filed and about half of the inactive calls have no number; reference of the scale not given here | inhibition, % at 50 µM | actives 0.07% (n = 96,000); in the data active means inhibition above about 25%
An asterisk follows results filed as active; i = inactive.

SMILES | H5N1 CPE
Cc1nc2ncnn2c(C)c1CCC(=O)N1CCOCC1 | 0.3
C=CCC(NCCCO)c1cccc(OC)c1OC (stereo unspecified) | i
Cc1cc(C)n(CC(O)Cn2c3ccc(Cl)cc3c3cc(Cl)ccc32)c(=O)n1 (stereo unspecified) | 0.6
CCOc1ccc(OCc2cccc(C(=O)O)c2)cc1 | i
CN(C)Cc1c(O)ccc2occ(C(O)c3ccccc3)c12 (stereo unspecified) | i
O=c1c(-c2ccccc2)c(O)c2cccc3c2n1CCC3 | i
Cc1cc(C)c(C)c(S(=O)(=O)N2CCN(C(=O)c3cc(=O)[nH]c4ccccc34)CC2)c1C | i
COc1ccc(OCCc2nnc(N)s2)cc1 | i
CN1/C(=C\P(=O)(N(C)C)N(C)C)C(C)(C)c2ccccc21 | 1.2
CCC(=O)Nc1nc2c(s1)COc1ccccc1-2 | 1.4
O=C(O)c1ccccc1SCc1ccc2c(c1)OCO2 | 0.1
O=C(NCc1ccccc1)c1cnc(-c2ccccn2)nc1C(F)(F)F | i
COCc1cc(Sc2ccc(Cl)cc2)nc(-c2ccccc2)n1 | i
CCCn1nnnc1SCC(=O)c1ccc(NC(C)=O)cc1 | 1.4
CN(C)CCCNCCCCNC(=O)/C=N/O | i
COc1ccc(N2C(=O)C3CCCN3C2c2ccc(C)o2)cc1Cl (stereo unspecified) | i
O=C(CSCc1c(Cl)cccc1Cl)NCc1cccnc1 | i
C=CCOc1ccc(/C=C/C(C)=N\O)cc1 | 0.2
CCOC(=O)C1C(=O)N(C(=O)c2cncc(Br)c2)CC1c1ccccc1 (stereo unspecified) | 0.6
Cc1cc(C(=O)Nc2ccccc2C#N)n(-c2ccccc2)n1 | 1.2
O=S(=O)(O)c1nnc2sc3ccccc3n12 | 0.8
CCNc1nc(N)c(C(=O)c2ccc(Cl)s2)s1 | 8.1
CCOc1cccc(-c2cc(-c3n[nH]c(=S)n3CC)c3ccccc3n2)c1 | 0.5
Cc1cc(C)c2c(c1)NC(=O)C2(O)CC(=O)c1cccs1 (stereo unspecified) | i
COc1ccc(C(=O)NCc2nnc(SCC(=O)N3CCC(C)CC3)o2)cc1OC | i

(cont.)
SMILES | H5N1 CPE
S=C(c1ccc2c(c1)OCO2)N1CCCCC1 | i
CCOC(=O)N1CCN(C(=O)/C(=C/c2ccccc2OC)NC(=O)c2ccccc2)CC1 | 0.1
CCN1CCCC1CNC(=O)c1cn(CC)c2ccc(S(=O)(=O)N3CCCCCC3)cc2c1=O (stereo unspecified) | 2.5
COc1ccccc1-n1c(O)c(C=Nc2c(C)n(C)n(-c3ccccc3)c2=O)c(=O)[nH]c1=O | i
Cc1nc(NCCN2CCOCC2)c2oc3ccccc3c2n1 | 0.1
Cc1ccc(-n2nc3cc(Cl)c(NC(=O)c4ccco4)cc3n2)cc1 | i
Cc1cccc(OCCc2nnc(N)s2)c1C | i
CC(C)CN(C(=O)CSc1nnc2c(Cl)cc(C(F)(F)F)cn12)C1CCS(=O)(=O)C1 (stereo unspecified) | 0.1
Nc1nnc(CSCc2ccccc2)s1 | i
O=C(/C=C/c1ccccc1)CC(O)(c1ccccc1)C(F)(F)C(F)F (stereo unspecified) | i
CSc1ccc(S(=O)(=O)Nc2ccc3c4c(cccc24)CC3)cc1 | 0.4
Cn1c(=O)cc(OCCCC(=O)N2CCN(c3ccccn3)CC2)c2ccccc21 | 2.3
Cc1cc([N+](=O)[O-])ccc1-c1ccc(C2Nc3ccccc3C(=O)N2O)o1 (stereo unspecified) | 12.2
O=c1cc(CSc2nnc(Nc3ccccc3)s2)nc2sccn12 | 1.6
N#Cc1c(-c2ccc(F)cc2)nc2n(c1=O)CCS2 | 1.9
CCOC(=O)Cc1c(C)c2c(C)nn(-c3ccccc3)c2oc1=O | 0.1
COc1ccnc(N2CCN(c3ccc(Cl)cc3)CC2)c1C#N | i
O=C(C(Cc1ccccc1)N1C(=O)C2C3CCC(C3)C2C1=O)N1CCCCC1 (stereo unspecified) | 4.5
CC(C)OCCCNC(=O)c1ccc(NS(C)(=O)=O)cc1 | i
CCCc1[nH]c(=O)c(C#N)c2c1COC(C)(C)C2 | 0.4
COc1cccc(N(CC(=O)N2CCN(c3ccccc3OC)CC2)S(C)(=O)=O)c1 | 0.8
COc1cc(SC)ccc1C(=O)Nc1ccc(S(=O)(=O)N2CCCC2)cc1 | 0.1
COc1ccc(N2C(=O)C(Cl)=C(N(CCO)Cc3ccccc3)C2=O)cc1 | 0.4
O=C(COc1ccc(S(=O)(=O)NC2CCCCC2)cc1)NCC1CCCO1 (stereo unspecified) | 1.4
CCOc1ccc(C(C)(C)C)cc1S(=O)(=O)N1CC(C)OC(C)C1 (stereo unspecified) | 3.5

Some of these compounds in order of SMILES length, descending:
SMILES | H5N1 CPE
COc1ccccc1-n1c(O)c(C=Nc2c(C)n(C)n(-c3ccccc3)c2=O)c(=O)[nH]c1=O | i
CCOC(=O)N1CCN(C(=O)/C(=C/c2ccccc2OC)NC(=O)c2ccccc2)CC1 | 0.1
CCCc1[nH]c(=O)c(C#N)c2c1COC(C)(C)C2 | 0.4
Nc1nnc(CSCc2ccccc2)s1 | i

Remaining list, next part:
SMILES | H5N1 CPE
Oc1ccc2ccccc2c1/C=N/Nc1nnc(-c2ncc[nH]2)c2ccccc12 | i
Cc1ccc(C)c(S(=O)(=O)N2CC(=O)Nc3ccccc32)c1 | 0.8
Cc1c(Nc2ncnc3c2cnn3-c2ccccc2)c(=O)n(-c2ccccc2)n1C | i
CCOc1nc(-c2ccc(OC)cc2)ccc1-c1noc(C)n1 | i
O=C(O)C1C2C=CC(O2)C1C(=O)Nc1ccc2c(c1)OCCO2 (stereo unspecified) | i
Cc1ccc(S(=O)(=O)CCC(=O)Nc2nc3c(s2)CCCC3)cc1 | 0.9
COc1cccc(C(=O)N(Cc2ccccc2)Cc2cc3cc4c(cc3[nH]c2=O)OCCO4)c1 | 3.9
CC1Cc2ccccc2N1C(=O)CSc1nc2ccccc2o1 (stereo unspecified) | i
Cc1nc2sc3c(c2c(=O)o1)CC(C)(C)OC3 | i
CCOC(=O)N1CCN(C(=O)c2cccn3c(=O)c4sccc4nc23)CC1 | 1.1
CC1(C)Oc2cc(N)c([N+](=O)[O-])cc2O1 | 0.1
Cc1cc(NC(=O)c2ccccc2Cl)c(C(C)C)cc1O | 0.2
Nc1nc2ccc(C(=O)NC3CCCCC3)cc2s1 | 0.1
O=C(C1CCCN(S(=O)(=O)c2cnc[nH]2)C1)N1CCN(Cc2ccccc2)CC1 (stereo unspecified) | 0.2
c1ccc(-c2n[nH]c(-c3ccccn3)n2)cc1 | i
CC(C)(C)c1ccc(C(=O)Nc2ccc(NC(=O)c3ccco3)cc2)cc1 | i
COc1ccc(Cl)cc1C(=O)Nc1ccccc1N1CCN(C(=O)C(C)C)CC1 | 2.9
Cc1ccc(-c2nnn(CC(=O)N(CCO)C(C(=O)NC(C)(C)C)c3ccncc3)n2)cc1 (stereo unspecified) | i
Cc1ccc(CNC(=O)C2CCN(S(=O)(=O)c3c(C)noc3C)CC2)cc1 | 0.1
O=C(N/N=C/c1cc([N+](=O)[O-])ccc1N1CCNCC1)c1ccc([N+](=O)[O-])cc1 | i
N#CCSc1nnc2ccc3ccccc3n12 | 1.7
COC(=O)c1ccc(C2NC(=S)N(c3ccccc3)C(C)=C2C(=O)Nc2ccccc2OC)cc1 (stereo unspecified) | i
Cc1nn(-c2ccccc2)c(Cl)c1C(=O)NCCCCNC(=O)c1c(C)nn(-c2ccccc2)c1Cl | 0.3
COc1ccc(C(=O)Oc2ccc(=O)n(-c3ccccc3)n2)cc1 | i
COCCNC(=O)c1onc(CSc2ccc(C)c(C)c2)c1C(=O)O | i

(more compounds)
SMILES | H5N1 CPE
N#CC(C#N)=c1ccc2c(c1)N1C3=C(CCCC3)CC3CCCCC31N=2 (stereo unspecified) | 6.5
COCCn1c(N)c(C(=O)NCC2CCCO2)c2nc3ccccc3nc21 (stereo unspecified) | 0.7
Nc1nc(CSc2nc3ccccc3s2)nc(N2CCCCC2)n1 | i
C=C(C)COc1ccc2c(C)c(C)c(=O)oc2c1OCC(=C)C | 0.1
c1ccc(CNc2ncnc3c2cnn3-c2ccccc2)cc1 | i
O=C(NC1c2ccccc2-c2ccccc21)N1CCCCC1 | i
COc1ccc(-c2cc3nc(C4CCN(C(=O)OC(C)(C)C)CC4)c(C(=O)O)cn3n2)cc1 | 1.0
O=C(C(NS(=O)(=O)c1cccc2nsnc12)c1ccccc1)N1CCN(c2ccccc2)CC1 (stereo unspecified) | 4.6
Cc1cc(NC(=O)CSc2cn(C)c3ccccc23)no1 | 1.4
CC(C)c1ccc2c(c1)C(=O)NC(C)(C)C2 | 1.1
COc1ccc(S(=O)(=O)N(CC(=O)NCCCN(C)C)c2ccc(C)cc2)cc1OC | i
O=c1[nH]c(=O)n(CCC2=CCCCC2)c(O)c1C=NCc1cccnc1 | 0.7
Cc1ccn(C(CC(=O)c2ccc(Br)cc2)C(=O)O)n1 (stereo unspecified) | i
Cc1cccc(OCCC(=O)OCC(=O)N2CCc3ccccc32)c1 | 0.5
O=C(Nc1ccc2c(c1)nc1n2CCCCC1)c1cc(S(=O)(=O)N2CCOCC2)ccc1Cl | 3.4
O=C(Cn1c(=O)oc2ccccc21)N1CCN(c2ccc(N3CCOCC3)nn2)CC1 | i
Brc1ccccc1OCCOCCOc1cccc2cccnc12 | 1.3
COc1cc(S(=O)(=O)NCc2cccnc2)ccc1F | i
CCOc1cccc(Nc2cc3n(c(=O)n2)CCc2cc(OC)c(OC)cc2-3)c1 | 1.3
CCCS(=O)(=O)N1CCC(C(=O)NCCCOC(C)C)CC1 | i
CC(Nc1nc(N2CCCC2)nc2ccccc12)c1ccccc1 (stereo unspecified) | i
Cc1sc2ncnc(N(C)Cc3cccs3)c2c1C | 1.8
O=c1c2ccccc2nc(-c2ccco2)n1CCCn1ccnc1 | i
C=CCn1c(O)c(C(CC)=Nc2ccccc2NC(=O)CC)c(=O)[nH]c1=O | i
N=c1c2c(n(Cc3ccc(Cl)cc3)c3c1CCC3)CCC2 | i

Some values from above.
Entry for O=C(C(NS(=O)(=O)c1cccc2nsnc12)c1ccccc1)N1CCN(c2ccccc2)CC1 (stereo unspecified) in H5N1 CPE: 4.6
Entry for Cc1sc2ncnc(N(C)Cc3cccs3)c2c1C in H5N1 CPE: 1.8

The listing picks up, starting two compounds before the break.
SMILES | H5N1 CPE
C=CCn1c(O)c(C(CC)=Nc2ccccc2NC(=O)CC)c(=O)[nH]c1=O | i
N=c1c2c(n(Cc3ccc(Cl)cc3)c3c1CCC3)CCC2 | i
CCC(=O)Nc1nc(C)c(-c2csc(Nc3ccc(S(=O)(=O)Nc4cc(C)on4)cc3)n2)s1 | i
COC(=O)c1ccc(N(CC(=O)NC2CCCC2)C(=O)CNC(=O)c2ccco2)cc1 | i
O=C(Nc1cccc2ncccc12)c1ccc(-c2ccc(Cl)cc2Cl)o1 | i
CCOC(=O)c1cnc2ccc(C(=O)OC)cc2c1NCCN1CCOCC1 | 1.1
Cc1sc2nc(C(C)(C)C)oc(=O)c2c1C | i
N#Cc1ccc2ccn(CC(=O)NCc3ccco3)c2c1 | 1.4
O=C(CSc1nnc(-c2ccccc2)n1C1CCCCC1)N1CCCC1 | 1.2
O=C(c1cnn2ccccc12)N(Cc1ccco1)C1CCCC1 | i
CCc1nc(NCCCN2CCOCC2)c2oc3ccccc3c2n1 | 0.3
CCCCCOc1ccc(C(=O)NCC2(c3ccccc3)CCOCC2)cc1 | i
CC(C)(C)NC(=O)c1ccnc(C(C)(C)C)c1 | 0.7
CC12CN(Cc3ccccc3)CC(C)(CN(Cc3ccccc3)C1)C2=NO | i
CCOC(=O)N1CCC(Nc2c(Nc3cccc(CC)c3)c(=O)c2=O)CC1 | 1.8
CCC(=O)NC(=S)NNC(=O)c1ccc([N+](=O)[O-])cc1 | 2.5
Cc1cc(C)cc(NC(=O)CN(C)S(=O)(=O)c2cccc3nsnc23)c1 | i
Cc1cccc(-c2nnc(SCc3nc4ccccc4[nH]3)n2Cc2ccco2)c1 | i
C/C(=N\O)c1ccccc1C(=O)O | i
Cc1ccc(OCc2ccoc2C(=O)O)cc1C | 0.5
N#Cc1c(NC(=O)CSc2n[nH]c(Cc3ccccc3)n2)oc(-c2ccccc2)c1-c1ccccc1 | 0.2
Cc1nc(-c2coc3c(CN(C)C)c(O)ccc3c2=O)cs1 | 1.0
COc1ccc(OC)c(-n2nnnc2SCC(=O)NCCc2ccccc2)c1 | i
Cc1cc(C)n(CC(=O)N2c3ccccc3Sc3ccccc32)n1 | 0.9
CCOc1ccc(S(=O)(=O)N2CCN(C(=O)c3cccn3C)CC2)cc1 | 1.5
C/C(=N\NC(=O)C1CCCN(S(=O)(=O)c2ccccc2)C1)c1cccnc1 (stereo unspecified) | i
O=C(Nc1ccccc1N1CCCCC1)c1ccccc1F | i

By substructure: the compounds so far containing a nitro group on carbon.
SMILES | H5N1 CPE
Cc1cc([N+](=O)[O-])ccc1-c1ccc(C2Nc3ccccc3C(=O)N2O)o1 (stereo unspecified) | 12.2
CC1(C)Oc2cc(N)c([N+](=O)[O-])cc2O1 | 0.1
O=C(N/N=C/c1cc([N+](=O)[O-])ccc1N1CCNCC1)c1ccc([N+](=O)[O-])cc1 | i
CCC(=O)NC(=S)NNC(=O)c1ccc([N+](=O)[O-])cc1 | 2.5

Continuation:
SMILES | H5N1 CPE
O=C(O)c1ccc(-n2nnnc2Oc2ccccc2C(=O)N2CCOCC2)cc1 | i
CC(c1ccco1)N(C(=O)c1cccs1)c1ccccn1 (stereo unspecified) | 1.1
Cc1ccc(NC(=O)CCC(=O)c2ccc(F)cc2)cc1Cl | 0.4
COCCOC(=O)/C=C1/NC(=O)CS1 | i
O=C(CCN1CCN(c2ccccc2F)CC1)Nc1ccccc1F | i
Cc1ccc(CSCCNS(C)(=O)=O)cc1 | 1.9
O=C(Nc1nc(C2C3CC4CC(C3)CC2C4)cs1)c1cc2cc([N+](=O)[O-])ccc2oc1=O (stereo unspecified) | i
CCCOc1ccccc1C1NC(=O)NC(C)=C1C(=O)OCCOCC (stereo unspecified) | i
COc1cc2c(cc1NC(=O)Nc1ccc(C)cc1)oc1ccccc12 | i
COc1ccnc(Oc2ccc(F)cc2)c1C(=O)N/C=N/OCc1ccc(F)cc1Cl | i
COc1ccc(/C=C/C(=O)c2sc(-c3ccc(Cl)cc3)nc2C)cc1 | i
O=C(/C=C/c1ccc(OC2CSC2)cc1)c1ccccc1 | i
O=C1OC(N2CCN(C(=O)C3CCCO3)CC2)c2ccccc21 (stereo unspecified) | i

From PubChem

A portion of the library. The share of hits here may be higher or lower than overall.
